# NPYLR7 agonist: activates Aedes aegypti NPYLR7 receptor. 270,000 tested, 0.15% active. activation, % at 10 µM. HEK293T NPYLR7/Galpha15, GCaMP6s calcium fluorescence. AID 1259423; in the data active = activation above about 40%;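 note: 0% = vehicle and 100% = reference agonist at the receptor; some compounds past the cut are filed as inactive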
# NPYLR7 agonist max-min: second read-out of NPYLR7 agonist, no call of its own (marks repeat the call); activation, %; measured here: Max-Min RFU normalised activation; some inactives read as strong as hits;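 span of the calcium signal over five minutes; 0% = vehicle and 100% = native peptide agonist; compound fluorescence can raise it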
# Starred values were filed as active, the others as inactive; & = joins results of further samples. A portion of the library, so the mix of outcomes need not match the whole.
SMILES,NPYLR7 agonist,NPYLR7 agonist max-min
CN(Cc1nc2ccc(F)cc2[nH]1)C(=O)C1CC(=O)Nc2ccc(F)cc21 (centres undefined),1,-8
CCc1noc(C)c1C(=O)OCC(=O)c1cc(C)n(C)c1C,2,5
COc1ccc(Cl)cc1NC(=O)CCC1CCCN(C(=O)c2cn3ccccc3n2)C1 (centres undefined),0,-7
C=CCNc1ccccc1C(=O)N1CCOCC1CC(=O)O (centres undefined),9,7
CNc1snc(C)c1C(=O)N1CCC(COc2ccccc2)CC1,-25,-27
CCOC(=O)c1ccc(Nc2nc(-c3cc4cccc(OCC)c4oc3=O)cs2)cc1,-5,-9
O=C(Cn1nc(-c2cccs2)c2sc(N3CCCC3)nc2c1=O)Nc1cccc(F)c1,-4,-7
N#CC(=C(O)CSc1ccccn1)c1nc2ccccc2s1,8,1
CC1(C)O[C@@H]2C[C@@](OCc3ccc(F)cc3)(C(=O)NC3CC3)CC(OCc3ccccc3F)[C@@H]2O1 (some centres undefined),17,6
CC(C)(C)NC(=O)NC(=O)COC(=O)CCC1CCCC1,-10,-16
Cc1ccsc1CN(Cc1ccccn1)Cc1cccc2c1OCO2,3,2
CCCSc1ncnc2c1sc1nc3c(cc12)COC(C)(C)C3,8,0
O=c1c2cnc3nc(-c4ccccc4)nn3c2ccn1CCc1c[nH]c2ccccc12,5,6
Cc1ccc(COC2CCCN(C(=O)C3CC3)C2)cc1 (centres undefined),8,6
Cc1ccccc1/C=C/c1nc(=S)n(CN2CCOCC2)[nH]1,0,1
C=CCN(Cc1ccccn1)C(=O)c1cccnc1,4,3
COc1ccccc1Oc1cc(N2CCN(C(=O)Cc3ccccc3)C(C)C2)ncn1 (centres undefined),-8,-3
O=C(c1cn2ccsc2n1)N1C[C@H](O)[C@@H](N2CCOCC2)C1,1,5
CCc1ccccc1CN1CCCn2cccc2C1c1ccc([N+](=O)[O-])cc1 (centres undefined),-1,4
CN(CC(=O)Nc1nc(-c2ccc3c(c2)CCCC3)cs1)S(C)(=O)=O,3,-7
CCc1cnc2c(c1SCC(=O)NC(C)C)c(=O)n(C)c(=O)n2C,4,7
CCCCN(CCC(=O)N1CCCC(C(=O)OCC)C1)c1nc(Cc2cccc(OC)c2)ns1 (centres undefined),0,-6
NC(=S)NC1CCCCC1,7,4
CC(C)CCN(Cc1cccn1Cc1ccccc1F)CC(C)O (centres undefined),-17,-12
O=C(N=Nc1c(O)[nH]c2ccccc12)c1ccc(-c2ncc(-c3ccccc3)o2)cc1,-18,-17
CCc1nc2n(n1)C(=O)C(C(c1ccccc1Cl)N1CCC3(CC1)OCCO3)S2 (centres undefined),-3,-8
Cc1cc(Oc2cccc(C(C)C)c2)nc(SCc2ccccc2Cl)n1,9,23
Cc1nc(N2CCC(C(=O)N(C)Cc3ccsc3)CC2)nc2ccccc12,3,1
CC(=O)N(C)CC1=CCCN(Cc2cc(F)c(F)cc2F)C1,5,1
N#Cc1c(C(=O)O)cc(C2CC2)[nH]c1=S,-1,4
C=CCCOC(=O)N1CC(=O)N(Cc2ccccc2OC)CC(OC)C1 (centres undefined),0,11
CC(C)NC(=O)CSc1nnc2n1CCN2c1ccccc1,-2,-2
COC(=O)CSc1nc(C)c2c(n1)CCCC2,11,7
Cc1cc(C)n(-c2ccc(N3CCN(C(=O)c4ccccc4F)CC3)nn2)n1,-5,-10
CCCCCCC(=O)N1CCSC1c1ccc2c(c1)OCCO2 (centres undefined),-5,-2
CCN(CC(=O)Nc1c(C)nn(CC)c1C)Cc1noc(C)n1,1,-4
Cc1ccc(N2CCCn3c2nc2c3c(=O)[nH]c(=O)n2C)c(C)c1,-6,-7
Cc1ccc(NC(=O)NCC2CCCN(Cc3nccn3C)C2)cc1 (centres undefined),2,1
COc1ccc(C(=O)N2C[C@H](O)[C@@H](N(C)Cc3cnccn3)C2)cc1,6,7
COCCn1c(=NC(=O)c2coc3ccccc3c2=O)sc2ccccc21,3,2

# Shown field by field: part of the list above
> CC(C)NC(=O)CSc1nnc2n1CCN2c1ccccc1
  NPYLR7 agonist = -2 | NPYLR7 agonist max-min = -2

> CCN(CC(=O)Nc1c(C)nn(CC)c1C)Cc1noc(C)n1
  NPYLR7 agonist = 1 | NPYLR7 agonist max-min = -4

> O=C(N=Nc1c(O)[nH]c2ccccc12)c1ccc(-c2ncc(-c3ccccc3)o2)cc1
  NPYLR7 agonist = -18 | NPYLR7 agonist max-min = -17

> C=CCCOC(=O)N1CC(=O)N(Cc2ccccc2OC)CC(OC)C1 (centres undefined)
  NPYLR7 agonist = 0 | NPYLR7 agonist max-min = 11

# Further structures.
SMILES,NPYLR7 agonist,NPYLR7 agonist max-min
Cc1ccccc1-n1[nH]c(C(C)C)c(-c2ccc(NC(=O)C3CC3)cc2)c1=O,13,10
O=C(CCc1nnc2n(Cc3ccccc3)c(=O)c3ccccc3n12)NC1CC1,1,9
COc1ccccc1N(C)C(=O)CCn1cccc1,-3,-6
Cc1ccc2nc(-c3ccc([N+](=O)[O-])cc3)nc(-c3ccccc3)c2c1,-3,-13
Cc1cc(C(=O)N2CCCC(c3ccn[nH]3)C2)n[nH]1 (centres undefined),2,2
CCOc1ccc(NC(=O)c2c([N+](=O)[O-])cnn2C)cc1,-5,-8
Brc1cccc(-c2nc(NC3CC3)c3ccccc3n2)c1,5,13
O=C(NC1CCC2CCCCC2C1)c1cnc2ccc(Br)cn2c1=O (centres undefined),1,5
CN(C)CC1(O)CCCN(C(=O)c2ccc(-n3ccnc3)cc2)CC1 (centres undefined),1,-2
Cn1ccc(C2CCCCN2)n1 (centres undefined),-5,-13
Cc1cc2ccccc2n1CCNC(=O)c1cccc2ccccc12,3,0
COC(=O)c1ccccc1Nc1nc(-c2ccccc2)cc(-c2ccccc2)n1,-6,-7
CC1=NN(CC(=O)NCCn2ncc3ccccc3c2=O)CC1,11,9
CCOc1ccccc1NC(=O)CC1SC(=Nc2ccccc2)N(c2ccccc2)C1=O (centres undefined),-6,-9
Cc1ccc(C2c3ccccc3CCN2C(=O)CC2CCCC2)cc1 (centres undefined),18,9
Cc1ccc(OCCCCNCCN2CCOCC2)c(I)c1,24,12
CC1=NN(CCN2CCN(c3ccccc3F)CC2)c2nc3c(c(=O)n(C)c(=O)n3C)n2C1,-7,-9
Cc1cccc(C(=O)NCCN2C(=O)C(=Cc3ccc4c(c3)OCO4)SC2=S)c1[N+](=O)[O-],0,3
CCOc1ccc(NC(=O)N(CC(=O)Nc2cc(C(C)(C)C)nn2-c2ccccc2)CC(C)C)cc1,26,25
CN(C(=O)CN1CCN(c2cc(-c3cccnc3)ncn2)CC1)c1ccccc1,-6,-6
Cc1cc(Oc2ccc(F)cc2F)nc(SCc2cccc([N+](=O)[O-])c2)n1,-10,-11
CC(Cc1cnccn1)NC(=O)CCc1nnc(CCCCc2ccccc2)o1 (centres undefined),-4,5
CCCCC1CCC(C(=O)N2CCN(c3nccn3C)CC2)CC1 (centres undefined),4,9
NC(=O)COc1ccc(C(=O)N2CCc3cc(Br)ccc32)cc1,3,0
COc1cccc(NC(=O)N2CCN(c3nc(-c4ccc(Cl)cc4)nc(C)c3Cc3ccccc3)CC2)c1,-1,2
CN(CC(=O)NC1CCSc2ccc(Cl)cc21)S(=O)(=O)c1ccc(Cl)cc1 (centres undefined),-2,15
COc1ccc(C2CCCN2C(=O)c2ccc(=O)[nH]c2)c(OC)c1 (centres undefined),-14,-18
CCCCC1(C)NC(=O)c2c(C)sc(C(=O)OCC)c2N1 (centres undefined),8,1
CN1C(=O)NC(c2cccc(Cl)c2Cl)C2=C1CN(CCC(=O)N1CCN(c3ccccn3)CC1)C2=O (centres undefined),0,10
C=CCc1c(C)nc2c(-c3ccccc3)cnn2c1NCc1cccnc1,6,4
O=C1NC(=Nc2ccccc2)S/C1=C/c1ccco1,-6,-10
COc1ccc(CCNC(=O)C(C2CCCC2)N2CCN(C(=O)CCc3ccccc3)CC2)cc1 (centres undefined),8,4
NCC(O)(c1ccccc1)c1ccccc1,-1,-1
COc1ccc(N2CCn3c2nc2c3c(=O)n(CCN3CCOCC3)c(=O)n2C)cc1Cl,0,-2
CNC(=O)COc1ccc2[nH]c3ccccc3c(=O)c2c1,15,14
Cc1ccc(C(=O)COC(=O)c2cc(=O)[nH]c3ccccc23)cc1,-2,4
CC(=O)CSc1nc2scc(-c3ccc(F)cc3)c2c(=O)n1-c1ccccc1,-5,-9
COc1ccc(-n2c(-c3ccccc3)cc(C(=O)NC(C)c3ccccc3)c2C)c(OC)c1 (centres undefined),-6,-5
Cc1cccc(N2CCC(N=CN(C)C)=N2)c1,-7,-9
Nc1nc2nonc2nc1Nc1ccccc1F,10,5

# Copied from the list.
# In NPYLR7 agonist, COc1ccc(N2CCn3c2nc2c3c(=O)n(CCN3CCOCC3)c(=O)n2C)cc1Cl has the entry 0
# In NPYLR7 agonist, O=C1NC(=Nc2ccccc2)S/C1=C/c1ccco1 has the entry -6
# In NPYLR7 agonist max-min, Cc1ccc(C(=O)COC(=O)c2cc(=O)[nH]c3ccccc23)cc1 has the entry 4
# In NPYLR7 agonist, CCCCC1CCC(C(=O)N2CCN(c3nccn3C)CC2)CC1 (centres undefined) has the entry 4
# In NPYLR7 agonist max-min, COc1ccc(CCNC(=O)C(C2CCCC2)N2CCN(C(=O)CCc3ccccc3)CC2)cc1 (centres undefined) has the entry 4

# The main list resumes, starting 2 compounds before the break.
SMILES,NPYLR7 agonist,NPYLR7 agonist max-min
Cc1cccc(N2CCC(N=CN(C)C)=N2)c1,-7,-9
Nc1nc2nonc2nc1Nc1ccccc1F,10,5
CN1CC2(CCCN(C(=O)CCc3cc(Cl)no3)C2)OC1=O (centres undefined),2,-1
CC(C)c1ccccc1N1C(=O)CSC1c1ccccc1NC(=O)c1cccc(Br)c1 (centres undefined),8,12
Cc1ccc(Cl)cc1NC(=O)CN1CCN(S(=O)(=O)Cc2ccccc2)CC1,6,3
CCCCOc1ccc(C(=O)Nc2ccc(C3SCC(=O)N3c3cccc(F)c3C)cc2)cc1 (centres undefined),6,10
CC(C)COc1nc(-c2ccc(C(F)(F)F)cc2)n(-c2ccc(NC(=O)CCCCl)cc2)n1,6,7
CCOC(=O)C1CCN(C(c2cccs2)C2Sc3ncnn3C2=O)CC1 (centres undefined),6,3
Cc1cccc(-c2cnc(C(O)c3ccc4ccccc4c3)[nH]2)c1 (centres undefined),1,-2
CCC(CC)NC(=O)COc1ccc(Cl)c2c1C(=O)CC2C (centres undefined),4,3
O=C(c1cccc(C(F)(F)F)c1)C1CCCN(C(=O)c2cc(-c3ccccc3)no2)C1 (centres undefined),1,0
CCOC(=O)c1cc(-c2ccc(N3CCN(C(=O)CC4CCCC4)CC3)cc2)n(-c2ccc(F)cc2)n1,-5,-5
O=C(Cn1c2ccccc2c(=O)c2ccccc21)Nc1ccc(Oc2ccc(Cl)cc2)cc1,-2,-8
Cc1noc(C)c1C(=O)NCCc1ccc(F)cc1,1,-3
Cc1ccc2[nH]c(CN3CCCC3c3ccccn3)nc2c1C (centres undefined),19,11
CC(C)COCC(NC(=O)c1ccn[nH]1)c1ccco1 (centres undefined),5,1
O=C(NN=Cc1ccccc1O)c1cc(Br)ccc1O,0,-3
O=C(NC1CCCC1)C1CCCN(S(=O)(=O)N2CCCCCC2)C1 (centres undefined),5,0
COc1ccc2c(c1)CCc1c(-c3ccc(C(=O)NCC4CCCO4)cc3)n[nH]c1-2 (centres undefined),15,12
CN(C)C(=O)Nc1cn(C)c2ccccc12,4,-6
CCN(CC)C(=O)Cn1cc(C(=O)NCc2ccccc2-c2ccccc2)nn1,3,1
COc1ccc(OC)c(-c2c3c([nH]c(=S)c2C#N)CCCC3)c1,8,4
Cn1c(-c2c(-c3ccccc3)ncn2C[C@@H]2CCCO2)nc2ccccc21,0,-1
COc1ccc(CN2CCN(C)CC2)c(OCC(O)CN2CCCCCCC2)c1 (centres undefined),11,4
Fc1cc(Br)ccc1OCc1cn2ccccc2n1,1,-1
CN(C)c1ccc(CNC(=O)N2CCCC2c2ccccc2Cl)cc1F (centres undefined),6,4
O=C1C(=Cc2cccc(O)c2)NC(=S)N1c1ccccc1,-7,-9
O=C(CSC1=NCCS1)NC12CC3CC(CC(C3)C1)C2,-5,-8
Cc1cccc(N2CCN(S(=O)(=O)c3cccc(C(C)O)c3)CC2)c1 (centres undefined),13,12
CC1CC(C)CN(CCCNC(=O)c2c(O)nc3ccccn3c2=O)C1 (centres undefined),0,10
COc1ccccc1CNc1ccc2nnc(CCNC(=O)c3ccccc3)n2n1,-2,-16
CCOC(=O)c1nc2cc(C)c(C)cc2nc1N1CCN(C(=O)c2ccccc2C(F)(F)F)CC1,4,2
COCCN1CC(C(=O)NCCCn2ncc3ccccc32)CCC1=O (centres undefined),19,7
CCCCNc1nnc(SCC(=O)c2cc(C)n(-c3cc(C)on3)c2C)s1,-6,3
CCOC(=O)c1c(NC(=O)C(C)(C)C)sc(C(=O)Nc2ccccc2F)c1C,-7,-14
CCc1ccccc1NC(=O)N1CCCN(c2nc(Cc3ccc(Cl)cc3)ns2)CC1,-2,7
Cc1ccc(Cl)cc1-n1c(SCc2nc(C(=O)O)cs2)nnc1-c1ccccc1Cl,-1,-9
Cc1onc(-c2ccccc2)c1C(=O)NC(C)c1ccccc1 (centres undefined),-2&3,-1&1
CC(=O)Nc1ccc(NC(=O)c2cccn(OCc3cccc([N+](=O)[O-])c3)c2=O)cc1,8,15
O=C(c1cc(-c2ccccc2)n[nH]1)N1CCC(Oc2ncccn2)CC1,17,11
Cc1ccc(CS(=O)(=O)Cc2csc(CCC(C)C)n2)cc1,-4,-6
CC1=C(C(=O)OCCSc2ccccc2)C(c2ccccc2Cl)NC(=O)N1 (centres undefined),0,-3
O=S(Cc1cc(Cl)c2c(c1)OCO2)Cc1ccccc1F (centres undefined),11,10
COc1ccc(NC(C)c2nc(-c3cccs3)no2)c(OC)c1 (centres undefined),0,-6
